Screening data from PubChem BioAssay.
RecA splice inh = Mtb RecA intein splicing inhibitors, primary screen, biochemical, fluorescence, HTS; Protein RecA (Mycobacterium tuberculosis (strain ATCC 25618 / H37Rv)), P9WHJ3; inhibition, %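 (about 9 µM by stock and volumes)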; cell-free RecA intein splicing; 0.75% of 290,000 active; in the data active means inhibition above about 30%; inconclusive means no clear call, values can overlap the other calls;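 further: 0% = vehicle wells and 100% = reference inhibitor control wells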
Target sequence (P9WHJ3 whole entry, looked up, canonical isoform): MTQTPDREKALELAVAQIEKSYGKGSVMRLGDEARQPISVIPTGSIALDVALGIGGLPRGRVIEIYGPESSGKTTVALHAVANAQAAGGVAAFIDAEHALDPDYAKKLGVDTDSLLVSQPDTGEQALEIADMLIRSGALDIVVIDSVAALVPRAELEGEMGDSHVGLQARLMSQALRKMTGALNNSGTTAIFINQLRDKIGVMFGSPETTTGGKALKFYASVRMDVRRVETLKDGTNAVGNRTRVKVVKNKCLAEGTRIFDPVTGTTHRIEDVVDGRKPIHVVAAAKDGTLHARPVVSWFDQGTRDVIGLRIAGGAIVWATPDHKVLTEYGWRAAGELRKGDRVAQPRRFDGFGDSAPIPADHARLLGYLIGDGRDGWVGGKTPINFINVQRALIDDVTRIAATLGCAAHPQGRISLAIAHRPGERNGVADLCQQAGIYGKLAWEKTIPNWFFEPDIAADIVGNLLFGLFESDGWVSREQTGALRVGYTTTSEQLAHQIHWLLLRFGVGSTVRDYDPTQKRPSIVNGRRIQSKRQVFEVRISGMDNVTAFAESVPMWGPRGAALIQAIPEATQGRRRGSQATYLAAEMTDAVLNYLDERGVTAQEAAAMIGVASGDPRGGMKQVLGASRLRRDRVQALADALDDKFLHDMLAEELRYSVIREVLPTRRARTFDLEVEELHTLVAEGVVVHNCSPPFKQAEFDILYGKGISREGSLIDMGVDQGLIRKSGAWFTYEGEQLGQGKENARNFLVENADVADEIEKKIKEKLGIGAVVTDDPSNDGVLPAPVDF
YopH PTP inh = YopH tyrosine phosphatase inhibitors, primary screen, biochemical, fluorescence Ex485/Em525; inhibition, %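 (about 10 µM by stock and volumes)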; 0.16% of 140,000 active; YopH tyrosine phosphatase [Yersinia enterocolitica];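 active means inhibition of 50% or more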;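 further: controls were vehicle for no effect and minimum signal wells for full effect; inactives centre near -20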
Mtb H37Rv = M. tuberculosis H37Rv growth inhibitors, H37Rv strain (AID 1626) | M. tuberculosis H37Rv growth inhibition; higher % means a stronger effect | inhibition, % at 10 µM, or IC50 in µM where a hit was titrated | 0.95% of 220,000 active;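 active means confirmed in a dose series; inconclusive means inhibition above 80% but not taken into the dose series; inactive means below 80% or under 30% at every dose of the series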;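 further: bacteria incubated seven days before Alamar blue readout; 0% = bacteria only wells and 100% = bacteria with antibiotic wells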
Arbovirus inh = antivirals against arbovirus infection, primary screen, cell-based, full library, 10K replicate subset; 0.37% of 200,000 active; arbovirus infection cell-based antiviral screen; inhibition, % at 10 µM; AID 1251, 2008;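 active means inhibition from about 30%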;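 further: bluetongue infection of BSR cells; cell survival read as ATP light after 72 h; 0% = infected wells without compound and 100% = uninfected wells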
Mtb betalactam = beta-lactam sensitization of Mtb H37Rv, H37Rv | 0.27% of 330,000 active | M. tuberculosis H37Rv growth with meropenem, percent inhibition; hits of this screen are not shown here | inhibition, % at 25 µM;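 active means about 74% or more and at least 40 points above the plate without the antibiotic, then above 30% in a dose series; inconclusive means first-round hits that could not be retested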;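 further: growth measured after seven days incubation then overnight dye step; 0% = bacteria only wells and 100% = bacteria with antibiotic; twin plates without the antibiotic show which effects depend on it; some results filed as inactive read as strong as hits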
Arbovirus inh repeat = recorded beside Arbovirus inh, whose call it bears; inhibition, %; measured here: 10K subset replicate screen; many hits read low in the repeat;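 first of two repeat runs on a subset; 0% = infected and 100% = uninfected wells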
* hit, by the source's call; ? = inconclusive; . = no result given; & = joins results of further samples. Only part of the results is shown (hit frequency here may not be typical).

SMILES	RecA splice inh	YopH PTP inh	Mtb H37Rv	Arbovirus inh	Mtb betalactam	others
Cc1ccc(S(=O)(=O)N2CCC(=O)N(CCOC(=O)Nc3ccc(C)c(C)c3)CC2)cc1	-6.9	-31	-3%	2	-11
O=C(CCCN1C(=O)c2ccccc2C1=O)N1CCOCC1	-0.6	.	2%	4	-10
O=S(=O)(c1ccccc1)N1CCN(c2nc3ccccc3s2)CC1	-0.4	-6	.	0	-5
COc1cccc(/C=N/NC(=O)c2ccc(COc3ccc(Cl)cc3Cl)o2)c1	-4.0	-18	8%	5	1
Cc1ccc(C(=O)NCc2ccc(Cl)c(Cl)c2)o1	1.2	-17	18%	-6	2	Arbovirus inh repeat=-14
Nc1ccccc1-n1cccc1	-1.3	.	-4%	.	4
CCCCOC(=O)Nc1nc(CC(=O)OCC)cs1	.	-24	-8%	5	-15	Arbovirus inh repeat=5
Cc1ccc(C(=O)CC(SCC(=O)O)c2ccc([N+](=O)[O-])cc2)cc1 (stereo not drawn)	1.1	.	7.9µM*	2	100
CC1(C)CC(NC(=O)Nc2ccc([N+](=O)[O-])cc2)CC(C)(C)N1	0.6	.	-7%	13	9
CC(C)CNC(=O)C1CCN(S(=O)(=O)c2ccc(-n3cnnn3)cc2)CC1	6.1	.	.	.	2
Cc1ccc(NC(=O)CCC(=O)NNC(=O)Cc2ccccc2)cc1C	1.5	-34	-1%	-2	17
COc1ccc(S(=O)(=O)Nc2cc3c4c(oc3c3ccccc23)CC(C)(C)CC4=O)cc1	5.8	23	6%	-19	9
Cc1ccc(S(=O)(=O)NC(CC(=O)NCc2ccco2)c2ccco2)cc1 (stereo not drawn)	0.2	-50	1%	3	-8
O=C(NCc1ccccc1)NC1(C(=O)N2CCN(c3ncccn3)CC2)CCCCC1	0.1	-19	2%	6	-8
CCCCCCCCCOc1ccc2[nH]cc(CCN)c2c1	.	.	1%&38%	-22	.
COCCNC(=O)/C(C#N)=C/c1ccc2c(c1)OCO2	-0.5	.	-1%	-6	-2
COc1cc(C(=O)Nc2nnc(SC)s2)c([N+](=O)[O-])cc1OC	1.9	.	-7%	-2	7
O=S(=O)(c1cccs1)N1CCN(CC(O)COc2cccc(Br)c2)CC1 (stereo not drawn)	2.0	-18	-6%	17	-22
COc1ccc2nc(C)cc(SCC(=O)Nc3c(C)cccc3C)c2c1	0.2	-34	0%	-2	-1
CN(C)CCCNC(=O)CCc1nc2ccccc2c(=O)[nH]1	5.8	-58	-7%	7	-11
C/C(NC1CCCCC1)=C(/C#N)C(=O)NCCN1CCOCC1	-1.6	-22	-4%	4	-17
CCCCC(=O)Nc1cnc(NC(=O)c2ccco2)cc1C	-1.3	.	.	.	4
Fc1cccc(F)c1/C=N/NC(=S)Nc1cccnc1	.	.	-1%	-6	19
CCc1ccc2[nH]c(=O)c(CN(CCCN3CCOCC3)C(=O)Nc3ccc(F)cc3)cc2c1	-1.1	-27	-3%	3	-9
COc1cc(C2C3=C(CCCC3=O)Nc3ccc4ncccc4c32)ccc1O (stereo not drawn)	2.0	.	0%	-7	2
COc1ccc(CC(=O)N/N=C(\C)CC(=O)Nc2ccc3c(c2)OCCO3)cc1	1.0	.	.	.	3
O=C1CC(Sc2cccs2)C(=O)N1c1ccccc1 (stereo not drawn)	1.9	.	5%	.	-4
Cc1ccc(N(CC(=O)NC2CCCCCC2)S(=O)(=O)c2c(C)nn(C)c2C)cc1	5.2	-35	-2%	12	-1
O=C(Oc1cccc(OC(=O)c2ccco2)c1)c1ccco1	49*	.	.	.	24
O=C1NCN(c2ccccc2)C12CCNCC2	-1.4	-31	5%	2	-13
O=C(Nc1nc2c(s1)CCCC2)C1CCCN1C(=O)c1cccs1 (stereo not drawn)	1.2	-4	-8%	8	5
Clc1ccc(-c2noc(CN(Cc3ccccn3)CC3CCCO3)n2)cc1 (stereo not drawn)	4.1	.	-1%	-3	46
COc1ccccc1NC(=S)N(Cc1ccco1)Cc1cc2cc(C)ccc2[nH]c1=O	-2.3	-9	5%	2	2
COc1ccc(C)cc1NC(=O)CN(C)C1CCCCC1	0.5	.	.	.	6
CCc1ccc2[nH]c(O)c(N=Nc3nc(-c4ccccc4)cs3)c2c1	-2.6	37	1.8µM*	-22	98
Cn1ccnc1SCC(=O)Nc1ccc2c(c1)COC2=O	3.0	10	-3%	2	1
CC[C@H](C)[C@H](NC(=O)OCc1ccccc1)C(=O)OCC(=O)Nc1ccc(N2CCOCC2)cc1	0.3	.	.	.	7
O=C(NCCC1=CCCCC1)c1cc(S(=O)(=O)N2CCOCC2)ccc1Cl	-1.0	.	.	.	-2
COC(=O)CSc1nnc(NC(=O)c2ccc3c(c2)OCO3)s1	0.9	.	.	.	?
O=C(COC(=O)c1ccc([N+](=O)[O-])o1)NC1CCS(=O)(=O)C1 (stereo not drawn)	-5.2	-6	-8%	0	21
COc1ccc(-n2nc(C)cc2Nc2ccccc2C(=O)O)cc1	4.7	.	-11%	.	-11
O=C1CC(N2CCN(C(c3ccccc3)c3ccccc3)CC2)C(=O)N1 (stereo not drawn)	0.7	-12	-4%	8	-17	Arbovirus inh repeat=5
N#Cc1ccc(C(c2nnnn2CCc2ccccc2)N2CCCCCC2)cc1 (stereo not drawn)	9.4	-28	0%	1	0
CCCN1CCN(S(=O)(=O)c2cn(C)nc2C)CC1	0.5	.	.	.	-8
CCOc1cccc(OCCOCCN(C)Cc2ccccc2)c1	-4.3	-37	-2%	5	-10	Arbovirus inh repeat=-7
CCN1C(=O)c2cccc3c(Cl)ccc1c23	-12	.	.	.	-7
CCOC(=O)CN1CC23C=CC(O2)C(C(=O)Nc2ccc(OC)cc2OC)C3C1=O (stereo not drawn)	5.0	-25	-2%	3	4
O=C(CN1C(=O)c2cccc3cccc(c23)C1=O)N1CCN(c2ccccn2)CC1	-3.2	-34	-12%	-6	4
Cc1cc(=O)[nH]c(SCC(=O)Nc2ccccc2C)n1	.	.	0%	1	-2
O=C(NCCc1ccc2c(c1)OCCO2)c1cc(F)cc(F)c1	-0.1	-16	2%	9	0
Carrying on:
SMILES	RecA splice inh	YopH PTP inh	Mtb H37Rv	Arbovirus inh	Mtb betalactam	others
CC(C)c1ccc(NC2CCCN(C(=O)c3cscn3)C2)cc1 (stereo not drawn)	-0.3	.	.	.	3
COc1ccc2cc(CCNC(=O)c3c(-c4ccccc4Cl)noc3C)c(=O)[nH]c2c1	0.5	-21	-1%	3	1	Arbovirus inh repeat=1
CC(NCc1cccn1C)c1ccccc1 (stereo not drawn)	-0.5	-38	-4%	1	-8
CN1Cc2c(N3CCOCC3)nc(SCc3ccccc3)c(C#N)c2CC1(C)C	1.6	-32	-1%	-40	65
O=C(Cn1c(N2CCN(C/C=C/c3ccccc3)CC2)nc2ccccc21)c1ccccc1	0.1	.	?	21	5
Cc1ccc2c(C(=O)CN3CCCCC3CCO)c(C)[nH]c2c1 (stereo not drawn)	-0.9	-26	-2%	-2	-7
CO/N=C/NC(=O)N1OC[C@@H]2COc3ccc4ccccc4c3[C@@H]21	-0.2	-32	16%	10	-11
COC(=O)c1cccc(NC(=O)c2cccs2)c1C	0.2	4	2%	1	-2
COc1ccc(C(=O)C2CCCN(Cc3c(O)cccc3OC)C2)cc1OC (stereo not drawn)	-3.4	.	.	.	5
CC(C)(C)[C@H]1C=C(C(=O)Nc2ccccc2)O[C@@H](OCc2ccc(CO)cc2)C1	4.8	.	7%	-11	75
Cc1ccc(NC(=O)CNCc2ccccn2)cc1S(=O)(=O)N(C)C	-1.7	.	5%	13	-2
O=C(N/N=C/c1ccncc1)c1cc(Br)ccc1OCc1ccccc1	-2.4	-49	9%	-3	1
CCCCN(C)C(=O)c1nc2ccccn2c1CN1CCC[C@H]1CO	0.1	.	.	.	-7
O=C(O)/C=C/c1ccc(S(=O)(=O)N2CCCCCC2)cc1	1.1	.	1%	3	-2
COc1ccc(-c2cc(N)n(S(=O)(=O)c3ccc(C)cc3)n2)c(OC)c1	0.3	-47	-4%	0	2
COc1cc(/C=C2\CCCc3c2nc2ccccc2c3C(=O)O)cc(OC)c1O	-9.5	.	0%	.	1
CCCNc1ncnc2nc[nH]c12	4.5	-15	-2%	6	1
Cc1nc2c(nnn2Cc2ccccc2)c(=O)[nH]1	1.5	.	4%	6	-4
Cn1c(CNC(=O)c2ccco2)nnc1SCC(=O)N1CCN(c2ccccc2)CC1	-0.9	.	.	.	-3
O=S(=O)(NCc1ccccn1)c1ccccc1	-4.4	12	0%	0	-3
Cc1cccc(-c2n[nH]c(=S)n2/N=C/c2ccc(C)s2)c1	1.6	17	9%	-9	5
Cc1cccc(N2CC(O)(c3cccs3)[N+]3=C2CCCCC3)c1 (stereo not drawn)	1.3	.	5%	1	2
O=c1[nH]c(O)c(N=Nc2ccc([N+](=O)[O-])cc2)c(=O)[nH]1	27	.	-1%	-17	1
CC(=O)C1=C(C)NC(=O)NC1c1cc(Br)ccc1OCC(N)=O (stereo not drawn)	3.6	-4	-9%	-4	-11
Cc1cccc(NC(=S)NC2CCN(Cc3ccccc3)CC2)c1C	1.8	-5	.	6	-2
CCN(CC)CCCNC(=O)c1cc2nc(-c3ccccc3)cc(C(F)(F)F)n2n1	-1.9	.	.	.	2
NC(=O)[C@H]1CC2(CC(c3cccc(NC(=O)[C@H]4CCC(=O)N4)c3)=NO2)CN1C(=O)c1ccccc1C(=O)c1ccccc1 (stereo partly drawn)	-0.5	.	-11%	.	-2
CC(=O)NCCC(=O)Nc1cc(S(=O)(=O)N2CCOCC2)ccc1N1CCOCC1	0.1	.	-1%	4	0
COc1cc(Br)cc(/C=C/c2ccc3cccc(O)c3n2)c1OC	2.3	.	.	.	-3
CCCCCC(=O)NCc1c(C(F)(F)F)nn(C)c1N1CCOCC1	-0.4	.	5%	-1	2
CCc1nnc(NC(=O)C2CCC(CNc3c(N4CCCCC4)c(=O)c3=O)CC2)s1 (stereo not drawn)	-0.5	.	1%	.	1
CCn1ncc(Br)c1C(=O)Nc1ccc(C(=O)OC(C)C)cc1	-5.1	-15	-11%	-11	96
COc1ccc(N2CCN(C3CC(=O)N(C)C3=O)CC2)cc1 (stereo not drawn)	-2.1	-16	-4%	4	1	Arbovirus inh repeat=1
CCn1c(/C=C/c2cc(Br)ccc2O)nc2ccccc2c1=O	-1.4	.	.	.	3
CCN(CC(=O)N1CCCC1)S(=O)(=O)c1ccc(F)cc1	-1.4	.	.	.	-2
Cc1cc(C)cc(NC(=O)CCN2CC(C)OC(C)C2)c1 (stereo not drawn)	6.6	-30	-10%	5	7
CC(NC(=O)Nc1ccc([N+](=O)[O-])cc1)C(c1ccccc1)N1CCOCC1 (stereo not drawn)	3.9	.	-5%	17	2

Compounds listed so far with an NH in an aromatic ring:
SMILES	RecA splice inh	YopH PTP inh	Mtb H37Rv	Arbovirus inh	Mtb betalactam	others
CCCCCCCCCOc1ccc2[nH]cc(CCN)c2c1	.	.	1%&38%	-22	.
CN(C)CCCNC(=O)CCc1nc2ccccc2c(=O)[nH]1	5.8	-58	-7%	7	-11
CCc1ccc2[nH]c(=O)c(CN(CCCN3CCOCC3)C(=O)Nc3ccc(F)cc3)cc2c1	-1.1	-27	-3%	3	-9
COc1ccccc1NC(=S)N(Cc1ccco1)Cc1cc2cc(C)ccc2[nH]c1=O	-2.3	-9	5%	2	2
CCc1ccc2[nH]c(O)c(N=Nc3nc(-c4ccccc4)cs3)c2c1	-2.6	37	1.8µM*	-22	98
Cc1cc(=O)[nH]c(SCC(=O)Nc2ccccc2C)n1	.	.	0%	1	-2
COc1ccc2cc(CCNC(=O)c3c(-c4ccccc4Cl)noc3C)c(=O)[nH]c2c1	0.5	-21	-1%	3	1	Arbovirus inh repeat=1
Cc1ccc2c(C(=O)CN3CCCCC3CCO)c(C)[nH]c2c1 (stereo not drawn)	-0.9	-26	-2%	-2	-7
CCCNc1ncnc2nc[nH]c12	4.5	-15	-2%	6	1
Cc1nc2c(nnn2Cc2ccccc2)c(=O)[nH]1	1.5	.	4%	6	-4
Cc1cccc(-c2n[nH]c(=S)n2/N=C/c2ccc(C)s2)c1	1.6	17	9%	-9	5
O=c1[nH]c(O)c(N=Nc2ccc([N+](=O)[O-])cc2)c(=O)[nH]1	27	.	-1%	-17	1
